# TRPML1 blocker – inhibitors of human TRPML1 channel. activity change, negative = inhibition, % (concentration not given with the values). TRPML1-inducible cells, Ca2+ dye fluorescence, FDSS; hits give low values; inhibition of EC80 agonist-evoked calcium signal. 390,000 compounds, 0.02% hits. Q9GZU1. AID 624415; in the data active means activity change below about -50%; inconclusive means about -30% to -50%; inactive means above about -30%;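 further: stimulus is agonist 54-4 at its EC80 concentration; on the % scale 0 is the no-effect control and ±100 the full control effect; the text of the record puts the active cut at -80%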
#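 Calcium fluorescence in TRPML1-DL cells induced overnight with Tet: a 110 s read after compound pin addition, then a 110 s antagonist read after challenge with 54-4 at 4 uM final (EC80).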
# Menin-MLL FL inh – menin-MLL binding inhibition, fluorescein peptide. Fluorescence polarization, fluorescein-MLL peptide displacement from menin. FP activity change, % at 61.4 µM. 290,000 tested, under 10 active. AID 1766; inconclusive = falling polarisation curve, or a change in total fluorescence; inactive = total fluorescence flat and polarisation flat or rising; no compound was filed as active; the % refers to the polarisation; negative = inhibition;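 further: % of control where 0% means no effect; inhibitors lower the polarisation; unlabelled MLL peptide was the positive control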
# TRPV1 PAM – enhances activation of the human vanilloid receptor TRPV1; 320,000 compounds, 0.02% hits; AID 540277; potentiation, % at 8.33 µM; TRPV1-expressing cells, Fluo-8 calcium influx, capsaicin EC20 potentiation; host cell line not named in the record; control for the full effect not named in the record; active means potentiation above 80%; inconclusive means 30% to 80%; inactive means below 30%; further: 0% is about no effect
# Target sequence (Q8NER1 whole entry, looked up): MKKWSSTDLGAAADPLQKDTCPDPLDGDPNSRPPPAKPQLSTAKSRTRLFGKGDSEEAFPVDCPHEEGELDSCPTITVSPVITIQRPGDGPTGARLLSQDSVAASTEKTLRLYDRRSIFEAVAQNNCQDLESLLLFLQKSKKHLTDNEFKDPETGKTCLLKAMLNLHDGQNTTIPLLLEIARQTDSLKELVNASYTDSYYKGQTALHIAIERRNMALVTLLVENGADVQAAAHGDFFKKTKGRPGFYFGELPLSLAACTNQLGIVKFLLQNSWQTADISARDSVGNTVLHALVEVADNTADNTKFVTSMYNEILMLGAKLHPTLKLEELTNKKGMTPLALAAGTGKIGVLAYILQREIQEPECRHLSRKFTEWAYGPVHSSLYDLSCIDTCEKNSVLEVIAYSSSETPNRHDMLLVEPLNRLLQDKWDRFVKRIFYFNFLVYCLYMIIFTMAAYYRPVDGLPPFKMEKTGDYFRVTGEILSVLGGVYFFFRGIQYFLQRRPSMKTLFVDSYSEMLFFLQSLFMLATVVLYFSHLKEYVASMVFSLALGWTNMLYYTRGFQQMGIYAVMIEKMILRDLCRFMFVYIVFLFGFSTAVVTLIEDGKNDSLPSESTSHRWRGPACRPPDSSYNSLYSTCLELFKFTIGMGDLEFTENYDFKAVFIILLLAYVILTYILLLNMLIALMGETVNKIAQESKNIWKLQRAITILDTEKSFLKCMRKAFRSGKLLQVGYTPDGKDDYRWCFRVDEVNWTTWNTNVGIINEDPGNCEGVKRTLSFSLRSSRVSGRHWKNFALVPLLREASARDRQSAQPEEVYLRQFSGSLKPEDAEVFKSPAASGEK
#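 TRPV1-expressing cells were cultured overnight at 35.5C and loaded with Fluo-8 calcium dye for 40 to 90 min at room temperature. After a 10 s baseline, compound was added and calcium influx was read kinetically for 3 min (ex 480/em 520 nm).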
# Sfp inh – blocks B. subtilis Sfp PPTase activity; Potency, µM, inactives show max response, negative = inhibition, most hits filed as inhibitors; Q9F4F7; 310,000 compounds, 3.5% hits; Biochemical Sfp PPTase activity, qHTS; active means well fitted inhibition curve with a large enough effect; inconclusive means small, poorly fitted or top-dose-only effect, or another doubt; inactive means no such curve, though single readings can be large or run the other way;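 further: the enzyme is Sfp with the accession as filed and its product quenches rhodamine fluorescence; potency means the concentration at half of the fitted maximal effect; 0% = enzyme reaction without inhibitor and -100% = no enzyme wells; top concentration of the series not given in the record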
#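 Reaction rates are the 30-min fluorescence difference (ex 525, em 598 nm) in wells containing 15 nM Sfp, 5 uM rhodamine-CoA and 12.5 uM BHQ-2-YbbR at pH 7.6 with 10 mM MgCl2.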
# ClpP mod – qHTS Assay for Activators of ClpP | Potency, µM (top dose mostly 57.5 µM), without a hit: at the top dose activity change, negative = active | purified B. subtilis ClpP, FRET peptide cleavage, 20 min | ATP-dependent Clp protease proteolytic subunit (Bacillus subtilis (strain 168)), P80244 | 340,000 compounds, 1.9% hits; active = well fitted falling curve with a large enough effect; inconclusive = small, poorly fitted or top-dose-only effect; inactive = no such curve, though single readings can be large or run the other way; further: potency means the concentration at half of the fitted maximal effect; the source files actives as falling curves though it sought activators and does not explain the sign; nearly all actives have a fitted effect of over 65% in size; many hits overshoot -100%
# Target sequence (P80244 whole entry, looked up): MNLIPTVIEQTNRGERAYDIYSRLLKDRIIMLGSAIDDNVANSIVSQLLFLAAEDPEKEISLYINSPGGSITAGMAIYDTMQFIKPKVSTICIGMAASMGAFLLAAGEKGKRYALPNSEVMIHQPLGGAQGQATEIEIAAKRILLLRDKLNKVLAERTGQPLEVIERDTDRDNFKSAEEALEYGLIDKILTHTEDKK
#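 Buffer: 100 mM Tris/HCl pH8, 100 mM KCl, 0.05% low protease BSA, 2.5% glycerol, 0.01% Tween-20. ClpP 10 microg/mL final; 20 min RT; delta FRET normalized to ADEP and DMSO controls.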
# TRPML1 ag – activates the human TRPML1 channel. 410,000 compounds, 0.12% hits. AID 624414. TRPML1-expressing cells, Ca2+ dye fluorescence, FDSS; host cell line not named in the record; reference of the full effect not given here. activation, % (test concentration not listed). Q9GZU1; in the data active = activation above about 50%; inconclusive = about 30% to 50%; inactive = below about 30%; further: 0% is about no effect; the text of the record puts the active cut at 80%
#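 Calcium fluorescence on an FDSS kinetic reader gave the read-out. Tet-induced TRPML1-DL cells were plated overnight, dye-loaded (Ca8 with quencher, 45-90 min, room temperature, dark), then read 110 s after compound addition, and again 110 s after 4uM final 54-4 (EC80).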
# PINK1 expr mod – changes PINK1 expression; PINK1 immunofluorescence, high-content cytometry, 24 h; Potency, µM (top dose mostly 76.6 µM), for the others: at the highest dose activation (PINK1 increase), hits mostly activators; 410,000 compounds, 0.2% hits; AID 624263; active = well fitted activation curve with a large enough effect; inconclusive = small, poorly fitted or top-dose-only effect; inactive = flat fitted curve, though single readings scatter; cell line not stated here;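 further: potency means the concentration at half of the fitted maximal effect; % of control where 0% means no effect; nearly all actives have a fitted effect of over 65% in size; a mitochondrial uncoupler was the plate control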
#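 Fluorescence from anti-PINK1 antibody, together with nuclear and cell stains, was scanned on a laser-scanning cytometer. Before staining, stable-line cells were incubated 24 hours with compounds at 5 concentrations; primary antibody 12 h at 10 degrees C.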
# Numbers without * were called inactive; ? = inconclusive; / = no result given; & = joins results of further samples; [ ] = remark or other dose.
# Each structure is followed by: Sfp inh, Menin-MLL FL inh, TRPML1 blocker, ClpP mod, PINK1 expr mod, TRPV1 PAM, TRPML1 ag
O=C1CN(C(=O)c2ccc(S(=O)(=O)N3CCCC3)cc2)C(c2ccccc2)c2cc(F)ccc2N1 (configuration not stated)
  /, /, -8, 0.5%, -0.3%, /, 0.9
COC(=O)C(NC(=O)C(NC(=O)c1ccccc1)C(C)C)C(C)C (configuration not stated)
  6%, -1.4, -6, 1.0%, -1.3%, -6, 1.8
COc1ccc(-c2cnn3c(N)c(S(=O)(=O)C(C)(C)C)cnc23)cc1
  2%, 21, -12, -0.8%, 5.3%[38.3 µM], 10, -0.4
COc1ccc(NC(=O)NCc2ccco2)c(OC)c1
  6%, 0.0, 4, 0.4%, 0.9%, -3, 3.2
Cc1[nH]c(=O)nc2c1CCC2
  13%, 1.8, -7, 4.6%, 0.5%, 2, 0.5
NC(=O)CC(NC(=O)c1ccc(Br)cc1)c1ccc(N2CCCCCC2)c([N+](=O)[O-])c1 (configuration not stated)
  5%, -7.1, 16, -0.8%, -0.9%, 4, 0.1
CSc1ccccc1NC(=S)NCc1ccc(Cl)cc1
  10%, 3.7, -14, -0.2%, 1.0%, -11, 1.5
CS(=O)(=O)N1CCN(C(=O)COc2ccc3ccccc3c2)CC1
  12%, 1.2, -29, /, -0.6%, -7, -0.5
O=c1c2cc(N3CCOCC3)ccc2[nH]c(=S)n1CCc1ccccc1
  17%, 0.3, 12, /, 9.1%, -5, -1.3
CC1CC(=O)Nc2ccccc2N1C(=O)CSc1nnnn1C(C)C (configuration not stated)
  /, /, 6, 1.2%, 0.9%, 0, 0.1
O=C(Cn1cc(S(=O)(=O)Cc2ccc([N+](=O)[O-])cc2)c2ccccc21)N1CCOCC1
  40µM*, /, ?, -2.7%, 0.7%, -2, 0.0
COc1ccccc1C(=O)Nc1nsc(-c2ccccc2)n1
  24%, -0.6, /, -6.4%, 1.1%, 19, /
CCOc1cc(CNCCc2ccccc2)ccc1OCC(=O)NC(C)(C)C
  3%, 4.6, 2, 1.2%, 5.3%, 7, 1.5
Fc1ccc(-n2nnc(-c3ccccc3)n2)cc1
  7%, -0.6, 0, -0.7%, 1.8%, 3, 0.9
CCOC(=O)N1CCN(CC(O)COCc2ccccc2)CC1 (configuration not stated)
  17%, 1.4, 0, 1.8%, 2.6%, 5, -0.5
COc1ccc(N(CC(=O)NC(C)c2ccccc2)S(=O)(=O)c2c(C)noc2C)cc1 (configuration not stated)
  14%, /, ?, 1.4%&-0.7%, -0.5%&0.9%, -20, -0.9&-1.3
CC[C@@]1(C(=O)OC)N[C@H](CN(C)S(=O)(=O)c2ccc(OC)cc2)[C@@H]2C(=O)N(C)C(=O)[C@@H]21
  /, /, -8, -0.7%, 2.3%, /, -0.9
CC(C)CC(=O)Nc1nnc(SCC(=O)NC2CCCC2)s1
  /, /, -1, 0.0%, 2.3%, /, -0.4
COc1ccc(Oc2ncc3ncc(=O)n(CCc4ccccc4)c3n2)cc1
  -1%, -5.1, /, /, 8.1%, /, /
CCCSc1ncc(Cl)c(C(=O)NCc2ccc(OC)cc2)n1
  /, /, 3, 0.5%, -0.7%, /, 2.7
Cc1cnc(C(=O)Nc2ccccc2F)cn1
  -14%, 3.0, 7, -0.7%, 0.5%, -10, -0.2
CCN(CC)C(=O)CN(c1ccc(F)c(Cl)c1)S(C)(=O)=O
  13%, 2.7, 2, -4.3%, -2.1%, 3, 0.7
Cc1ccc(S(=O)(=O)Nc2ccc3c(c2)CCCN3C(=O)c2cccs2)cc1
  /, /, 10, -0.5%, 1.1%, /, 0.3
CCn1nnnc1NC(=O)c1cc(Cl)c(OC)c(Cl)c1
  15%, -0.1, -2, 1.0%, 1.8%, 7, -0.1
CCOc1cc(C2C3=C(CC(C)(C)CC3=O)N(CCCOC)C3=C2C(=O)CC(C)(C)C3)ccc1OC
  9%, 0.1, -6, 1.0%, -0.6%, 0, -0.6
Cc1ccc(-n2ncc(C(=O)NCCN3CCc4ccccc4C3)c2C2CCN(C(=O)OC(C)(C)C)CC2)cc1
  /, /, 24, 1.6%, 1.0%, /, 0.1
CCNC(=O)NC(=O)C(C)Oc1ccc(Br)cc1Br (configuration not stated)
  7%, -1.0, -6, /, 1.5%, 3, 0.1
C=CCOc1c(Cl)cc(CNc2ccc(N(C)C)cc2)cc1OC
  3.5µM*, ?, -7, -2.6%, ?, 25, 1.4
COC(=O)c1cc(Br)c(=O)n(CCN2CCCCC2)c1
  20%, 4.3, 12, -0.7%, 3.2%, -6, -0.4
COc1ccc(Cl)cc1NS(=O)(=O)c1cccc(C(=O)NC2CCC(O)CC2)c1 (configuration not stated)
  /, /, -2, 0.3%, 2.4%, 1, -0.8
O=c1[nH]c(=O)c2cc([N+](=O)[O-])cc([N+](=O)[O-])c2[nH]1
  2%, 3.0, -2, /, -1.5%, -21, 0.2
Cc1ccc2c(=O)c(CN3CCCCCC3)c(C)[nH]c2c1C
  16%, -7.5, -8, /, 0.4%, 2, -1.2
CC(=O)C1=C(O)C(=O)N(c2ccc(O)cc2)C1c1ccccc1Cl (configuration not stated)
  2%, 1.6, 3, 1.6%, 0.7%, 1, -0.2
COc1ccc(C(=O)NCC2CCCCC2)cc1S(=O)(=O)N1CCOCC1
  /, /, 14, /, 1.8%, /, 0.3
COC(=O)c1ccccc1NC(=O)c1cc(-c2ccccc2O)no1
  /, /, 12, -19%, 11%, /, -0.9
O=C(N/C(=C\c1ccco1)C(=O)N1CCOCC1)c1ccccc1Cl
  4%, -0.6, -9, /, 0.3%, 4, -0.1
Clc1ccccc1CN(Cc1ccccc1)C(c1cccs1)c1nnnn1C1CCCC1 (configuration not stated)
  13%, 0.4, 16, 0.0%, -1.5%, 1, 0.3
COc1ccc(CNC(=O)CCCN2C(=O)c3cccnc3Oc3ccc(Cl)cc32)cc1
  /, /, -6, 2.1%, -0.1%, /, 2.8
COc1ccc(NC(=O)CSc2nc(C(C)C)nc3c2c(=O)n(C)c(=O)n3C)c(OC)c1
  -5%, /, 17, 0.4%, 4.9%, 12, -0.4
CCC(C)NC(=O)CSc1nc(-c2ccc(F)cc2)cc(C(F)(F)F)n1 (configuration not stated)
  /, /, 0, -0.2%, 1.7%, /, -0.3
COc1ccc(CCNC(=O)c2c(C)nn(CC(C)C)c2Cl)cc1OC
  9%, /, 6, -2.0%, 0.3%, 8, 0.7
O=C(CCc1ccccc1)NC(=S)NCc1ccco1
  -4%, -0.1, -1, /, -1.2%, -14, 1.9
Cc1cc(C(=O)CCC(=O)Nc2ncccc2O)c(C)s1
  /, /, -10, /, -1.7%, -15, 1.6
CCN(CC)c1cc(Oc2ccccc2)ncn1
  18%, 0.8, -9, -1.4%, -0.9%[38.3 µM], 8, -0.4
CCc1ccccc1NC(=O)CN(C)C(=O)COC(=O)c1c(Cl)cccc1Cl
  /, /, -20, -2.9%, 6.9%, 13, -0.1
CCOC(=O)c1ccc(NC(=O)Cn2cnc3cc(C)c(C)cc32)cc1
  21%, 4.1, -1, -0.7%, 2.8%, -8, 2.0
O=c1[nH]c2ccc(NC(=S)Nc3ccccc3Cl)cc2[nH]1
  50µM*, -0.6, -28, -1.7%, -2.1%, 7, -0.6
O=C(COC(=O)CCC(=O)c1cccs1)NCc1ccco1
  35µM*, 0.8, 18, -1.9%, 1.7%, 2, -0.4
COc1ccc(CCCc2nnc(SCC(=O)Nc3nccs3)n2C)cc1C
  -8%, 6.9, 21, -2.1%, -1.6%, -10, 1.7
COc1ccc(/C=N/NC(=O)C(N)=O)c(OC)c1OC
  -16%, 0.2, -24, -1.9%, -2.7%, -2, -0.4
COc1cccc(C(C(=O)NC2CCCCC2)N(CC2CCCO2)C(=O)CNC(=O)c2ccco2)c1 (configuration not stated)
  10%, -2.6, -5, 0.0%, 2.1%, -9, 0.5
Cc1c(C(N)=O)sc2ncn(CCOc3ccccc3)c(=O)c12
  26%, -1.3, 15, /, 4.8%, 1, 0.3
C=CCn1c(SCC(=O)Nc2ccc3c(c2)CCC3)nnc1-c1cccs1
  -6%, -1.4, 11, -1.6%, -2.3%, 20, 1.6
Cc1cccc(-n2c(-c3ccco3)n[nH]c2=S)c1
  -15%, 1.9, -6, ?, -1.0%, -2, -0.4
CC(C)Cc1ccc(C(C)C(=O)Nc2ccc(O)cc2)cc1 (configuration not stated)
  19%, 0.3, 1, -1.7%, 2.7%, -9, 23
CC(C)Nc1nc(NC(C)C)nc(N(C)N)n1
  13%, 6.3, 1, -1.2%, 2.1%, 29, 0.1
Cc1ccc2c(c1)N(C(=O)CCC(=O)N1CCc3ccccc3C1)CCO2
  -7%, -0.8, -1, -0.8%, -0.2%, -21, -0.5
C=CCc1cccc2cc(C(=O)NNC(=O)c3ccncc3)c(=O)oc12
  19%, -2.7, -17, /, -1.3%, -10, 0.1
CCCN1C(=O)/C(=C/c2cc(C)n(C)c2C)SC1=Nc1ccc(OCC)cc1
  5%, 11, -10, -0.8%, 5.4%, 15, 1.4
COc1ccc(NC(=O)c2sc3ncn(CC(=O)N4CCN(c5ccccn5)CC4)c(=O)c3c2C)c(OC)c1
  23%, /, 4, -0.2%, 9.1%, 15, 0.0

# The list continues.
# Each structure is followed by: Sfp inh, Menin-MLL FL inh, TRPML1 blocker, ClpP mod, PINK1 expr mod, TRPV1 PAM, TRPML1 ag
CCCCCN(C(=O)CCC(=O)OCC(=O)N1CCCCC1)c1c(N)n(CCCC)c(=O)[nH]c1=O
  7%, 5.3, -16, 2.6%, 0.9%, 1, 0.1
O=C(O)CCCC1(C(=O)O)CCCC1
  /, /, 6, /, 1.2%, /, 0.4
O=[N+]([O-])c1ccccc1S(=O)(=O)N1CCN(C2CCCC2)CC1
  -26%, /, 5, -4.7%, -2.6%, 1, 1.2
Cc1ccc(C)c(N2CCN(c3nc4ccccc4c(=O)n3-c3ccccc3)CC2)c1
  /, /, -13, -0.8%, 1.3%, /, 3.2
CCOC(=O)N1CCC(N2Cc3cccc(C(=O)Nc4cc(F)ccc4F)c3C2=O)CC1
  15%, 1.6, 6, -0.5%, 0.3%, 5, -0.4
COc1ccc(CN(C)C(=O)c2cc(S(=O)(=O)N3CCOCC3)ccc2N2CCCC2)cc1
  /, /, 14, /, -2.4%, 19, 2.8

# High-throughput results (PubChem BioAssay)
